From PubChem
HSV augment: HSV replication enhancement; HSV replication augmentation in cells, fold increase; actives 0.005% (n = 220,000); maximum fold increase;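 active = peak rise of 1.5-fold or more in the series; tested in PC3 cells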;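 note: first round at 10 µM; read as green reporter fluorescence; hits show the peak of a series up to 25 µM; 1 = signal of infected wells without compound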
Insulin prom inh: TRM-6 insulin promoter activity inhibition; TRM-6 cells (human fetal islet line), insulin promoter-eGFP reporter, imaging; reporter expression induced with tamoxifen; inhibition, % at 2 µM; actives 0.9% (n = 130,000);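 active = inhibition above the mean plus 3 SD, with well images judged a real hit on visual review, cut at about 60% in these data, passing the limit was not always enough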
RGS16-Gao: regulators of human RGS16-Galphao interaction. AID 1441. actives 0.38% (n = 220,000). bead-based flow cytometry RGS16-Galphao binding, fluorescence; actives lie on both sides. binding response (% of control), % at 10 µM;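 active = below 25% or above 175%, edge rows of some plates excepted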;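 note: Galphao activated by GDP with aluminum fluoride before binding; 100% = wells without compound and 0% = beads without RGS; some results beyond the cut were filed as inactive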
PKD1 inh: blocks activity of human protein kinase D1; Q15139; PKD1 kinase fluorescence polarization assay; inhibition, %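 (about 10 µM by stock and volumes)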; actives 0.056% (n = 200,000);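 active = inhibition of 50% or more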;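 note: controls were vehicle for no effect and a reference inhibitor for full effect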
Target sequence (Q15139 whole entry, looked up): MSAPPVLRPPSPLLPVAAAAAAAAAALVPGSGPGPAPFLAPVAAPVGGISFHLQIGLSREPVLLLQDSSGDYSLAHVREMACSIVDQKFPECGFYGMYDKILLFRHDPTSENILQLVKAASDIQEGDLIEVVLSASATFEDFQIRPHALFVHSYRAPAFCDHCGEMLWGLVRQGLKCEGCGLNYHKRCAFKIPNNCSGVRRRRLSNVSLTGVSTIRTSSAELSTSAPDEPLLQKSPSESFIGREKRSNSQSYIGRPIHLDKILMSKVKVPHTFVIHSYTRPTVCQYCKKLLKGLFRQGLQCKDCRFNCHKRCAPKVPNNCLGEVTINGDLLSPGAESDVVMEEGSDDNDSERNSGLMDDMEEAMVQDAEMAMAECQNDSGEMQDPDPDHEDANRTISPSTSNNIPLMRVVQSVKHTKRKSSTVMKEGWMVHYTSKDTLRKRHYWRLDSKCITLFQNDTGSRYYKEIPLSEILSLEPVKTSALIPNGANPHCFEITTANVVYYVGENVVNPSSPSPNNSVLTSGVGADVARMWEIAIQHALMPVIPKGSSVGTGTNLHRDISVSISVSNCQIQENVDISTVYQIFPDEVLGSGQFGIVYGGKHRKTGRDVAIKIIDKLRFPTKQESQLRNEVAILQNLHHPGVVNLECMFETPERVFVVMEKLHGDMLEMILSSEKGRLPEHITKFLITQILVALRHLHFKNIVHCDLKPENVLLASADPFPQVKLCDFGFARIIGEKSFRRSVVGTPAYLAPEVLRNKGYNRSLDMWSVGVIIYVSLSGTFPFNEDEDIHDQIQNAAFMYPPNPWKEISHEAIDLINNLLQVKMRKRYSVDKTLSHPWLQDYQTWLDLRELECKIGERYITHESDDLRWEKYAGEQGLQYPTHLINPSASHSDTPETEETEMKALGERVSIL
GALR2 ag: activates the human galanin receptor 2; O43603; GALR2-expressing cells, agonist activation read-out; activation, %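 (tested at 5 µM)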; actives 0.48% (n = 140,000); AID 803;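 active = above mean plus 3 SD of all compounds, about 5% in these data, not always enough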;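 note: 0% = vehicle buffer wells and 100% = reference agonist at full effect; tested in CHO reporter cells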
Insulin prom inh cell count: further read-out of Insulin prom inh, marked with its call; normalized cell count, %; measured here: cell count, toxicity; reference of the scale not given here;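 cells exposed to compound for 48 h; stained nuclei by imaging scaled within each plate; lower means fewer cells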
HSV augment primary fold: also measured in HSV augment; calls as there; fold increase; compound at 10 µM; measured here: primary screen fold increase 10 uM; tested in PC3 cells;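 GFP signal in the first replicate; 1 = infected wells without compound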
Active calls of the source: *; i = inactive; x = not tested or not shown.

Below each SMILES: HSV augment | HSV augment primary fold | Insulin prom inh | Insulin prom inh cell count | RGS16-Gao | PKD1 inh | GALR2 ag
[1] c1ccc2c(c1)C(=NCC1CCCO1)NC2=NCC1CCCO1 (stereo not given)
    i | 0.93 | x | x | 95 | -8 | -0.5
[2] CCOC(=O)CCC(=O)Nc1ccc([N+](=O)[O-])cc1C
    i | 0.88 | x | x | 104 | -2 | x
[3] COC(=O)c1sc(S(=O)(=O)N2CCN(CCO)CC2)c(C(=O)OC)c1C
    i | 0.91 | x | x | 100 | -4 | x
[4] C/C(=N\Nc1cccc(C(=O)O)c1)c1cc2ccccc2o1
    i | 0.9 | x | x | 100 | 0 | x
[5] Cc1cc(C)cc(NC(=O)C2CCCN2C(=O)NC2CCCCC2)c1 (stereo not given)
    i | 1.2 | x | x | 99 | 4 | x
[6] Cc1ccc(C2(C)NC(=O)N(CC(=O)NC(=O)NCCC(C)C)C2=O)cc1 (stereo not given)
    i | 1 | 15 | 131 | 109 | 11 | -0.3
[7] O=Cc1ccc(OCC(=O)NC(=O)NC2CCCCC2)cc1
    i | 0.98 | 40 | 115 | 100 | -6 | -0.9
[8] COc1ccc(NC(=O)CSc2nnc(C3CC3)n2N)cc1
    i | 0.87 | x | x | 101 | -9 | -2.5
[9] COC(=O)COc1ccc2c(=O)c(-c3ccccc3)coc2c1
    i | 1.1 | x | x | 100 | x | x
[10] Cc1onc(-c2c(Cl)cccc2Cl)c1C(=O)OCC(=O)c1ccccc1
    i | 1.1 | x | x | 94 | x | x
[11] Cc1nn(Cc2ccc(Cl)cc2Cl)c(C)c1NC(=O)c1nc2n(n1)C(C(F)F)CC(C)N2 (stereo not given)
    i | 0.86 | x | x | 94 | -5 | -1.7
[12] CC(=O)c1ccc(N2CCN(C(=O)CCS(=O)(=O)c3ccc(C)cc3)CC2)cc1
    i | 0.99 | x | x | 98 | 5 | -1.2
[13] COc1cccc(CNC(=O)c2nnn(CC(=O)Nc3ccc4c(c3)OCO4)c2N)c1
    i | 1 | x | x | 90 | -5 | x
[14] CC(=O)c1cccc(NC(=S)NC(=O)c2ccccc2Cl)c1
    i | 0.96 | 6 | 66 | 102 | 1 | -1.1
[15] Cc1cccc(C)c1NC(=S)N1CCC(c2ccccc2)C1 (stereo not given)
    i | 0.95 | x | x | 107 | 4 | x
[16] O=C(N1CCOCC1)N1CCN(c2nc(-c3ccccc3)cs2)CC1
    i | 1 | x | x | 102 | -8 | -1.9
[17] COc1ccc(/C=N/NC(=O)C2c3ccccc3Oc3ccccc32)c(OC)c1
    x | x | 4 | 43 | 116 | -10 | -0.7
[18] COc1ccc(N2C(=O)C3CCCN3C2c2ccc(C)cc2)cc1Cl (stereo not given)
    i | 1 | x | x | 95 | -11 | -2.1
[19] COCCSc1ccccc1C(=O)Nc1ccc2c(c1)OCO2
    i | 0.91 | x | x | 107 | 6 | x
[20] Cc1cc(C)n2nc(SCC(=O)N/N=C/c3cccc(Br)c3)nc2n1
    i | 0.95 | -275 | 70 | 95 | -8 | -1.2
[21] Cc1ccc(S(=O)(=O)Cc2sc3ccccc3[n+]2C)cc1
    i | 1.1 | 22 | 160 | 94 | 1 | -2.6
[22] Fc1ccc(/C=C/c2nnc(-c3cccs3)o2)cc1
    i | 1.1 | -65 | 83 | 97 | 3 | -1.0
[23] O=c1[nH]c2cc3c(cc2cc1CN(Cc1ccc2c(c1)OCO2)Cc1nnnn1CC1CCCO1)OCO3 (stereo not given)
    i | 0.88 | 11 | 132 | 99 | -9 | -2.5
[24] O=C(CN1C(=O)c2ccccc2C1=O)OCC(=O)N1CCc2ccccc2C1
    i | 0.94 | 29 | 94 | 103 | 5 | -1.9
[25] CC(C)c1cc(C(=O)Nc2ccc3c(c2)OCO3)no1
    i | 0.98 | 80* | 126* | 102 | -6 | -1.7
[26] COc1ccc(CC(=O)Nc2oc(-c3ccccc3)c(-c3ccccc3)c2C#N)cc1OC
    i | 1.1 | 22 | 112 | 90 | -5 | 0.0
[27] CCOC(=O)Cc1csc(NC(=O)c2cc3c(s2)CCCC3)n1
    i | 1.1 | 13 | 130 | 101 | -5 | -0.4
[28] CC1(C)C2CCC13CS(=O)(=O)NC3C2 (stereo not given)
    i | 0.92 | 50 | 108 | 105 | -6 | -0.6
[29] COc1c(/C=N/NC(=O)c2ccncc2)c(CCN(C)C(C)=O)cc2c1OCO2
    i | 0.95 | x | x | 99 | x | x
[30] COc1cc(NC(=O)N2CCNC2=O)cc(C(=O)Nc2cccc(C(F)(F)F)c2)c1
    i | 0.5 | x | x | 102 | x | x

3 entries out of the list above, ordered by the number in PKD1 inh, smallest number first.
item	molecule	PKD1 inh
27	CCOC(=O)Cc1csc(NC(=O)c2cc3c(s2)CCCC3)n1	-5
15	Cc1cccc(C)c1NC(=S)N1CCC(c2ccccc2)C1 (stereo not given)	4
6	Cc1ccc(C2(C)NC(=O)N(CC(=O)NC(=O)NCCC(C)C)C2=O)cc1 (stereo not given)	11

(listing goes on)
Below each SMILES: HSV augment | HSV augment primary fold | Insulin prom inh | Insulin prom inh cell count | RGS16-Gao | PKD1 inh | GALR2 ag
[31] CCOC(=O)CSc1nnc(-c2ccc(S(=O)(=O)N3CCC(C)CC3)cc2)o1
    i | 0.67 | -19 | 143 | 115 | -9 | -1.2
[32] Nc1ccccc1N1CCOCC1
    i | 1 | -19 | 144 | 91 | -5 | -2.0
[33] O=C(C[n+]1ccc2c(c1)nnn2-c1ccccc1)c1ccc(Cl)cc1
    i | 1.1 | x | x | 101 | x | x
[34] COc1cccc(CNC(=O)c2c[nH]n3c(=O)c(Cl)c(C)nc23)c1
    i | 0.94 | -14 | 93 | 75 | -4 | -2.9
[35] Cc1ccc(-n2c(O)c(/C=N/c3ncn[nH]3)c3ccccc3c2=O)cc1
    i | 0.84 | x | x | 94 | -9 | x
[36] Cc1cccc(N2CCN(S(=O)(=O)c3ccc(S(=O)(=O)N4CCCC4)cc3)CC2)c1C
    x | x | 7 | 88 | 103 | -6 | -1.4
[37] CCOC(=O)C1CCN(C(=O)c2ccc3c(c2)OCO3)CC1
    i | 1.2 | x | x | 99 | 1 | -0.8
[38] Cc1ccc(-c2nc(N)n(S(C)(=O)=O)n2)cc1
    i | 1 | -31 | 80 | 90 | -12 | -2.5
[39] COc1ccc2oc(=O)c(C(=O)Oc3ccc(NC(C)=O)cc3)cc2c1
    i | 1.1 | x | x | 101 | -1 | -0.8
[40] COc1ccc(S(=O)(=O)NCC2CCC(C(=O)NCc3cccnc3)CC2)cc1 (stereo not given)
    i | 0.96 | x | x | 97 | 3 | x
[41] CC1CCCC(C)N1C(=O)CN1C(=O)C(C)(C)Oc2ccc(C(=O)NC3CCCCC3)cc21 (stereo not given)
    i | 0.95 | -6 | 131 | 3 | -4 | -2.5
[42] Cc1ccc(-c2nc3ccccc3s2)cc1NC(=O)c1ccc2c(c1)OCO2
    i | 0.91 | 21 | 56 | 106 | 0 | 0.6
[43] OC(COC(c1ccccc1)c1ccccc1)CN1CCN(c2ccccn2)CC1 (stereo not given)
    i | 0.9 | 20 | 91 | 111 | 15 | -1.0
[44] CC(C)c1ccc(-n2ccnc2SCC(=O)O)cc1
    i | 0.96 | 27 | 148 | 104 | -3 | x
[45] O=C(COc1cccc(C(F)(F)F)c1)N1CCN(c2ccccc2O)CC1
    i | 1.1 | -5 | 114 | 98 | 3 | x
[46] COc1ccc(CCN(C)CCC(=O)Nc2cc(C)ccc2C)cc1OC
    i | 0.96 | -29 | 94 | 107 | 4 | -1.2
[47] CC(C)Oc1cccc(C(=O)C2CCCN(C(=O)c3csnn3)C2)c1 (stereo not given)
    i | 0.98 | 9 | 125 | 97 | 0 | x
[48] Cc1ccc(-c2cc3c(n2-c2ccc(C(=O)O)cc2)CCCC3=O)cc1
    i | 1.1 | 62 | 107 | 103 | -13 | -0.8
[49] CCCN1C2CCCC1CC(NC(=S)Nc1cc(C)cc(C)c1)C2 (stereo not given)
    i | 0.9 | x | x | 105 | -7 | x
[50] Nc1nc(SCC(=O)NCCCN2CCOCC2)nc2sc3c(c12)CCC3
    i | 0.92 | x | x | 109 | -1 | -3.7
[51] O=C(COc1ccccc1C(=O)O)NC1CCCc2ccccc21 (stereo not given)
    i | 1.1 | x | x | 102 | 2 | x
[52] Cc1ccc(OC/C(O)=C(\C#N)c2nc3ccccc3s2)cc1
    i | 0.98 | 0 | 94 | 110 | -8 | -1.6
[53] Cc1cc(C)c(C(=O)Nc2ccc(C)c(C)c2)c(CC(C)(C)C(=O)O)c1
    i | 1.1 | x | x | 91 | x | x
[54] O=S(=O)(N/N=C/c1cn(Cc2ccccc2)c2ccccc12)c1ccccc1
    i | 0.9 | 44 | 123 | 99 | -5 | -4.5
[55] CCCc1c(O)nc(SC2CC(=O)N(c3ccc(OC)cc3)C2=O)[nH]c1=O (stereo not given)
    i | 1 | x | x | 100 | x | x
[56] O=C(Nc1ccc(Cl)c([N+](=O)[O-])c1)c1ccc2c(c1)OCCO2
    i | 0.78 | 27 | 104 | 108 | -5 | x
[57] CNC(=O)CSc1nnc(SCCC(=O)O)s1
    i | 0.95 | 36 | 111 | 104 | -5 | -1.3
[58] COc1ccc(-c2csc(/N=C/N(C)C)n2)cc1OC
    i | 0.77 | x | x | 101 | -5 | x
[59] CCOC(=O)C1(Cc2cccc(OC)c2)CCCN(C(=O)c2cc(C)[nH]n2)C1 (stereo not given)
    i | 0.9 | 47 | 74 | 80 | 1 | x
[60] Cc1cc(Nc2cccc(F)c2)nc(N2CCOCC2)n1
    i | 0.98 | x | x | 104 | x | x

Continued (3 carried over from the part before).
Below each SMILES: HSV augment | HSV augment primary fold | Insulin prom inh | Insulin prom inh cell count | RGS16-Gao | PKD1 inh | GALR2 ag
[58] COc1ccc(-c2csc(/N=C/N(C)C)n2)cc1OC
    i | 0.77 | x | x | 101 | -5 | x
[59] CCOC(=O)C1(Cc2cccc(OC)c2)CCCN(C(=O)c2cc(C)[nH]n2)C1 (stereo not given)
    i | 0.9 | 47 | 74 | 80 | 1 | x
[60] Cc1cc(Nc2cccc(F)c2)nc(N2CCOCC2)n1
    i | 0.98 | x | x | 104 | x | x
[61] CC(Sc1n[nH]c(N)n1)C(=O)C12CC3CC(CC(C3)C1)C2 (stereo not given)
    i | 1 | -14 | 138 | 101 | -3 | -2.5
[62] CCOC(=O)c1sc(NC(=O)c2cccc(S(=O)(=O)N(CC)CC)c2)cc1C
    i | 0.87 | x | x | 63 | -4 | -2.3
[63] CCC1SC(=NC(=O)c2ccc(Cl)c(Cl)c2)NC1=O (stereo not given)
    i | 1 | x | x | 109 | -11 | -1.6
[64] Cc1csc(N2CCc3ccccc32)n1
    i | 0.83 | 21 | 108 | 103 | 1 | -1.6
[65] CCC(C)Sc1nc2c(c(=O)[nH]c(=O)n2C)n1CC(O)COc1cccc2ccccc12 (stereo not given)
    i | 0.83 | x | x | 98 | 16 | 2.9
[66] Cc1ccc(C2C(C#N)=C(N)N(c3ncn[nH]3)C3=C2C(=O)CC(C)(C)C3)cc1 (stereo not given)
    i | 0.87 | 1 | 83 | 54 | -8 | -3.2
[67] Cc1ccc2[nH]c(O)c(N=NC(=O)C3CC3c3ccccc3)c2c1Br (stereo not given)
    i | 0.88 | -26 | 90 | 46 | -7 | 1.6
[68] CCC(CC)C(=O)c1c[nH]c(C(=O)N2CCN(c3ccccc3)CC2)c1
    i | 1 | -23 | 114 | 104 | -3 | x
[69] Cc1ccc2c(c1)N(CCC(=O)NCC1COc3ccccc3O1)C(=O)CO2 (stereo not given)
    i | 0.86 | -8 | 42 | 101 | -9 | -1.6
[70] COc1cc(OCC(N)=O)cc(OC)c1OC
    i | 1.1 | x | x | 104 | -12 | -0.8
[71] CCCCCCCSc1nnc(N)s1
    i | 0.91 | x | x | 103 | x | x
[72] O=C(Nc1nccs1)c1ccc(-c2ccc(Cl)cc2Cl)o1
    i | 0.93 | x | x | 96 | -2 | -0.2
[73] COc1ccc(-n2c(SCC(=O)Nc3cc(C)on3)nc3ccc(O)cc3c2=O)cc1OC
    i | 1.1 | x | x | 100 | -15 | -0.2
[74] O=c1ccc(/C=C/c2ccccc2)nn1Cc1ccccc1Cl
    i | 0.88 | 48 | 91 | 108 | 0 | -3.5
[75] COc1ccc(C(=O)NCc2nnc(SCC(=O)Nc3nnc(C)s3)o2)cc1
    i | 1 | -16 | 108 | 97 | -6 | x
[76] CCN(CC)C(=O)COc1cccc2ccccc12
    i | 0.82 | 9 | 74 | 110 | -2 | -1.9
[77] CCOC(=O)c1sc2nc(C)[nH]c(=S)c2c1C
    i | 1 | 79* | 123* | 104 | 0 | x
[78] Cc1sc2ncn(CC(=O)NCCCC(=O)N3CCN(c4ncccn4)CC3)c(=O)c2c1C
    i | 1 | x | x | 136 | -2 | -2.0
[79] CSc1ccccc1NC(=S)N/N=C/c1cccn1Cc1cccc(C)c1
    i | 0.94 | x | x | 101 | -2 | x
[80] C=CCn1c(SCc2c(C)noc2C)nc2sc3c(c2c1=O)CCCC3
    i | 0.76 | 11 | 102 | 106 | 0 | -0.6

Rows were taken by chance; overall some 1.3% were active at least once.
